Screening results (PubChem)
Ecoli rRNA inh – inhibitors of bacterial rRNA selective over humanized ribosomes. E. coli WT GFP vs humanized-ribosome RFP mutants, fluorescence, 24 h; active compounds read low; DMSO median 0, no signal -100. GFP signal change (wild-type ribosome), % (no concentration beside the values). hit rate 1.6% among 350,000;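 active means significant combined selectivity score with lowered wild-type GFP, culture density cut under 30%, mutant RFP and density less affected; inactive means any of these conditions unmet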; further: one replicate is shown; some compounds called inactive have numbers as strong as hits
Beta apoptosis – beta cell apoptosis inhibition. INS-1E cytokine-induced death, ATP luminescence, 48 h; percent of positive-control rescue, neutral wells zero. protection from apoptosis, % (no concentration beside the values). hit rate 0.8% among 300,000. AID 435005;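 active means all replicates at 75% or more, or half of them and the mean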;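 further: 0% = cytokine-treated negative control wells and 100% = positive control rescue; higher means more ATP so stronger rescue from cytokine killing; wells of about 40 µL received 100 nL stock; the first replicate is given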
Calb FLC – C. albicans growth modulation with fluconazole. hit rate 0.57% among 300,000. C. albicans CaCi-2 (fluconazole-resistant clinical isolate) + fluconazole, Alamar Blue growth, 48 h. growth inhibition, % (concentration not given with the values);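 active means most replicates above 75%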;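 further: all wells also contain fluconazole at 8 µg/ml as a sub-toxic cotreatment; 0% = median of DMSO wells and 100% = median of geldanamycin control wells; wells of about 8 µL received 7.5 nL stock; the first replicate is given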
ALR H2O2 inh – blocks human ALR sulfhydryl oxidase activity. purified ALR, DTT oxidation, H2O2 HRP-luminol luminescence. inhibition, % (no concentration beside the values). P55789. hit rate 3.8% among 290,000. AID 485317;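 active means mean and each replicate at 75% or more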;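 further: stock transfer was 7.5 nL into about 7.5 µL; 0% = neutral wells and 100% = wells with inactivated enzyme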
FGF22 binding – binders of recombinant human FGF22 by thermal shift. SYPRO orange fluorescence; percent of sucrose octasulfate shift, DMSO zero. hit rate 1.5% among 340,000. calls only at 9.99 µM. Q9HCT0. AID 651658;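 active means melting point raised past a set limit in the mean and every replicate; three in four hits are not shown here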
T cruzi inh – blocks replication of Trypanosoma cruzi; T. cruzi beta-gal in NIH3T3, luminescence, 90 h; inhibition, % (test concentration not listed); hit rate 1.4% among 300,000; AID 1885;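 active means mean inhibition across valid replicates above about 55%, limit read from the data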;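 further: signal also drops with host cell toxicity which is not excluded here; 0% = plate median of DMSO wells and 100% = zero luminescence signal; higher percent means less beta-gal luminescence so fewer parasites; stock transfer was 50 nL into about 50 µL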
RanGTP-Imp inh – inhibitors of RanGTP-importin-beta interaction, primary screen, biochemical, FRET, CFP-Ran, YFP-importin-beta, homogeneous. cell-free CFP-Ran/YFP-importin-beta FRET ratio. inhibition, % (test concentration not listed). hit rate 1.1% among 300,000. AID 2216;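 active means most replicates above 15%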;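 further: 0% = DMSO wells and 100% = Ran loaded with GDP instead of GTP; wells of about 40 µL received 100 nL stock; the first replicate is given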
AF4-AF9 inh – inhibitors of human MLL-AF4/AF9 interaction. AlphaScreen, biotin-AF4 peptide binding to FLAG-AF9. inhibition, % at 10 µM. hit rate 0.47% among 350,000. AID 651704;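 active means every replicate reaching a set inhibition limit, whatever the replicate mean, cut at about 25% in these data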;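 further: 0% = plate neutral control median and 100% = total signal loss; the record names both 10 and 1 µM as test concentration; the first replicate is given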
Target sequence (P42568 whole entry, looked up): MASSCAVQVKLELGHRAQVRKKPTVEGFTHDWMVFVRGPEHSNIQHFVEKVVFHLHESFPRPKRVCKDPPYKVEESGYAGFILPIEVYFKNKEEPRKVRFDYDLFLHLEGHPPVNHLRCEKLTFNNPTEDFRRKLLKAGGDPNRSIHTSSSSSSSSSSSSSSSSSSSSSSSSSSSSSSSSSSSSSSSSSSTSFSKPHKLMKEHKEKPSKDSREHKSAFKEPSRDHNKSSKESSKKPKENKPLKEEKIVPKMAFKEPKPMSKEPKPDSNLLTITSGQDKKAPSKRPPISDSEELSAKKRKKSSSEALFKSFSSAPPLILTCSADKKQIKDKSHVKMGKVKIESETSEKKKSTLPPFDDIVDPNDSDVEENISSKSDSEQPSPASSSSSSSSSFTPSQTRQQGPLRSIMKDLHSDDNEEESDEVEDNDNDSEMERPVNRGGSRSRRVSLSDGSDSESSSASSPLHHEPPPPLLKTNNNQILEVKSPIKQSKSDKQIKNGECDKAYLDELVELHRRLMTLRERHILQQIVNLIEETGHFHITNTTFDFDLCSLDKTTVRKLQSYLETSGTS
Ecoli rRNA inh OD600 – further read-out of Ecoli rRNA inh, marked with its call; OD600 change, %; measured here: OD600 growth;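 optical density of the mix in the first replicate; 0 = DMSO median and -100 = no signal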
Ecoli rRNA inh RFP – further read-out of Ecoli rRNA inh, marked with its call; RFP signal change, %; measured here: RFP humanized mutant strains;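 first replicate; 0 = DMSO median and -100 = no signal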
Numbers without * were called inactive; i = inactive. Only part of the results is shown; rates above refer to the full screens.

Screens by letter – A = Ecoli rRNA inh; B = Ecoli rRNA inh OD600; C = Ecoli rRNA inh RFP; D = Beta apoptosis; E = Calb FLC; F = ALR H2O2 inh; G = FGF22 binding; H = T cruzi inh; I = RanGTP-Imp inh; J = AF4-AF9 inh
CCN(CC)S(=O)(=O)c1ccc(N2CCOCC2)c(NC(=O)COc2ccccc2)c1
  A: -24.9	B: -34.5	C: 6.8	D: 9.2	E: -0.5	F: 2.6	G: i	H: 5.2	I: -1.0	J: 1.8
COC(=O)c1ccc2[nH]c3c(c2c1)CC(C)CC3 (stereo not drawn)
  A: 3.8	B: -1.6	C: -0.9	D: -2.4	E: -15.6	F: 92.5*	G: i	H: -1.2	I: 13.1	J: 3.7
CC(C)NC(=O)CC(=O)N/N=C\c1ccccc1C(=O)O
  A: 11.1	B: 11.9	C: -0.6	D: -5.6	E: -6.7	F: 5.0	G: i	H: -6.1	I: -2.3	J: -1.5
CCOc1cc(C(c2c(C)[nH][nH]c2=O)c2c(C)[nH][nH]c2=O)cc([N+](=O)[O-])c1O
  A: -0.9	B: -2.1	C: -5.5	D: 0.2	E: -4.7	F: -0.1	G: i	H: -8.4	I: -0.6	J: -0.8
O=C(Nc1ccccc1)c1csc(-c2ccccc2)n1
  A: -51.0	B: -77.2	C: -12.3	D: -6.7	E: -0.8	F: -3.7	G: i	H: -13.2	I: -3.6	J: -6.1
C=CCNC(=S)Nc1c(N)n(C)c(=O)n(C)c1=O
  A: 9.5	B: 3.2	C: -3.0	D: -2.7	E: 8.2	F: 18.8	G: i	H: -7.8	I: -2.8	J: 0.5
COc1cc(S(=O)(=O)N2CCN(C(=O)c3ccco3)CC2)c(OC)cc1C
  A: -1.8	B: -0.8	C: 0.4	D: -2.9	E: 7.9	F: -8.2	G: i	H: -8.2	I: 2.3	J: -3.7
Cc1cccc(NC(=O)CSc2ncnc3c2oc2ccccc23)c1
  A: 10.6	B: 16.9	C: -0.1	D: 0.6	E: -4.1	F: -2.2	G: i	H: 1.4	I: 1.6	J: -0.4

Another view of part of the listing above:
| Structure | Ecoli rRNA inh | Ecoli rRNA inh OD600 | Ecoli rRNA inh RFP | Beta apoptosis | Calb FLC | ALR H2O2 inh | FGF22 binding | T cruzi inh | RanGTP-Imp inh | AF4-AF9 inh |
| --- | --- | --- | --- | --- | --- | --- | --- | --- | --- | --- |
| CCN(CC)S(=O)(=O)c1ccc(N2CCOCC2)c(NC(=O)COc2ccccc2)c1 | -24.9 | -34.5 | 6.8 | 9.2 | -0.5 | 2.6 | i | 5.2 | -1.0 | 1.8 |
| CCOc1cc(C(c2c(C)[nH][nH]c2=O)c2c(C)[nH][nH]c2=O)cc([N+](=O)[O-])c1O | -0.9 | -2.1 | -5.5 | 0.2 | -4.7 | -0.1 | i | -8.4 | -0.6 | -0.8 |
| CC(C)NC(=O)CC(=O)N/N=C\c1ccccc1C(=O)O | 11.1 | 11.9 | -0.6 | -5.6 | -6.7 | 5.0 | i | -6.1 | -2.3 | -1.5 |
| COc1cc(S(=O)(=O)N2CCN(C(=O)c3ccco3)CC2)c(OC)cc1C | -1.8 | -0.8 | 0.4 | -2.9 | 7.9 | -8.2 | i | -8.2 | 2.3 | -3.7 |
